High-throughput results: PubChem, several laboratories
ALR H2O2 inh: blocks human ALR sulfhydryl oxidase activity; purified ALR, DTT oxidation, H2O2 HRP-luminol luminescence; AID 485317; inhibition, % (concentration not given with the values); P55789; hit rate 3.8% among 290,000;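 active means mean and each replicate at 75% or more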;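 further: stock transfer was 7.5 nL into about 7.5 µL; 0% = neutral wells and 100% = wells with inactivated enzyme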
Ecoli growth: inhibitors of Escherichia coli growth | OD600, 23 h; stronger effect = lower value | OD600 absorbance (concentration not given with the values) | hit rate 0.21% among 330,000 | AID 1053175;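 active means OD600 absorbance below the run mean of sample wells minus 3.6 SD, in any replicate, cut at about 0.56 in these data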;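 further: stock transfer was 300 nL into about 60 µL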
FGF22 binding: binders of recombinant human FGF22 by thermal shift | SYPRO orange fluorescence; percent of sucrose octasulfate shift, DMSO zero | calls only at 9.99 µM | hit rate 1.5% among 340,000 | AID 651658;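 active means melting point raised past a set limit in the mean and every replicate; three in four hits are not shown here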
Target sequence (Q9HCT0 whole entry, looked up): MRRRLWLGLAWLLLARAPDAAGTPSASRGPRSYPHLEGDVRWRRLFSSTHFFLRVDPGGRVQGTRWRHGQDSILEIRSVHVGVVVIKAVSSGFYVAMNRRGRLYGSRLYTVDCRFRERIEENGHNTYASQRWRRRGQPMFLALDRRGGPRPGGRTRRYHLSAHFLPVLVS
LANA-H2A inh: blocks KSHV LANA binding to histone H2A/H2B. Q9QR71. cell-free LANA-H2A/H2B peptide, fluorescence polarization. inhibition, % (concentration not given with the values). hit rate 0.6% among 320,000. AID 2629; in the data active means inhibition mostly above about 10%, no sharp cut-off; inactive means mostly below about 6.7%;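 further: stock transfer was 7.5 nL into about 10 µL; 0% = median of vehicle wells and 100% = median of positive control wells; one replicate is shown; the record names a cut of 25% in any replicate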
HNF4A DNA FP: change in binding of human HNF4 alpha to DNA; hit rate 0.3% among 360,000; HNF4a-FITC DNA binding, fluorescence polarization, 1 h; AID 1224865; P41235; activity change, % at 10 µM; in the data active means activity change above about 30%, passing the limit was not always enough;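 further: controls were the assay level and a saturating level of protein; the project sought stronger binding though the title names inhibitors; some compounds called inactive have numbers as strong as hits; positive values seem to mean higher polarization but the record does not say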
Target sequence (P41235 whole entry, looked up): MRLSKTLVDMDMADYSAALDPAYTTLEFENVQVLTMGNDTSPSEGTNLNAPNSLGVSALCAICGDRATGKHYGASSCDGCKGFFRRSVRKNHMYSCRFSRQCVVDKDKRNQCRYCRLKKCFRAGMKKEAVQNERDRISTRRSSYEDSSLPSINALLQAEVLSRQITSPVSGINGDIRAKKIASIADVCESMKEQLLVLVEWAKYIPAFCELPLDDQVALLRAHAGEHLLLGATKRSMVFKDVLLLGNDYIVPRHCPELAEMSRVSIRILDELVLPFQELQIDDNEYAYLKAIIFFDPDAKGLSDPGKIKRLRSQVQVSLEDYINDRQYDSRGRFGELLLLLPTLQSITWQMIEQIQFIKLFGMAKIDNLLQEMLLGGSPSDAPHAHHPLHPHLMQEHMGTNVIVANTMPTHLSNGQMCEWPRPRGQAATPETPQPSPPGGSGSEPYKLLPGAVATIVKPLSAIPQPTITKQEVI
UCH37 inh: blocks the human deubiquitinase UCH37 | inhibition, % (no concentration beside the values) | hit rate 0.33% among 330,000 | purified proteasome/UCH37, Ub-AMC cleavage fluorescence | Q9Y5K5;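 active means mean of two replicates above 20%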;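 further: 0% = compound-free wells with enzyme and 100% = wells lacking proteasome; stock transfer was 100 nL into about 20 µL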
Target sequence (Q9Y5K5 whole entry, looked up): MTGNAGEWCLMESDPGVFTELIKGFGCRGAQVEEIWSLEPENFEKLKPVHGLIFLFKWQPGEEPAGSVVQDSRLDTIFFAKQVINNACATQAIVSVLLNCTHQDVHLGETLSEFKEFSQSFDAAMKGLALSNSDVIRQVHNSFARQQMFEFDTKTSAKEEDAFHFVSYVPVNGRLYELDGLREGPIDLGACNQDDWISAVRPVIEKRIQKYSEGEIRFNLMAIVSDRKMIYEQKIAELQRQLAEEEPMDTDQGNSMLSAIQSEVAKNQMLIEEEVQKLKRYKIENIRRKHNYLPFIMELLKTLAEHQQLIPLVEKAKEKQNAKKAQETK
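Reagent: Ub-AMC substrate; assay system: Proteasome-associated human UCH37 deubiquitinase; controls: no-proteasome and no-compound wells; read-out: % inhibition of Ub-AMC cleavage fluorescence; timing: 30 min preincubation with enzyme, 25 min cleavage at room temperature; signal: AMC fluorescence from Ub-AMC cleavage, excitation 355 nm, emission 460 nm; buffer or medium: Tris-HCl pH 7.4 plus ovalbumin, ATP-MgCl2, DTT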
B2AR ag: activates human beta-2 adrenergic receptor causing internalization | response, % (concentration not given with the values) | P07550 | hit rate 0.43% among 340,000 | Am2.2-beta2AR cells, FAP receptor internalization, flow cytometry; reference of the scale not given here;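 active means response above a set limit, near 3 SD of response in nonfluorescent compounds, cut at about 42% in these data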;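 further: stock transfer was 100 nL into about 11 µL; a reference agonist was the positive control; negative values mostly stem from fluorescent compounds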
* hit, by the source's call; i = inactive; / = not tested or not shown; & = joins results of further samples. A portion of the library; the hit share may differ from the screen's.

SMILES	ALR H2O2 inh	Ecoli growth	FGF22 binding	LANA-H2A inh	HNF4A DNA FP	UCH37 inh	B2AR ag
COc1ccc(NS(=O)(=O)c2ccc(OCC(=O)N3CCN(C)CC3)cc2)cc1Cl	2	0.71	i	-0.2	-0.7	4.6	1
CCC(=NCc1ccco1)c1c(O)n(Cc2ccccc2)c(=O)[nH]c1=O	-3	0.7	/	0.5	2.3	2.9	-9
Cc1cccc(-n2c(O)c(C)c(=O)[nH]c2=S)c1	/	0.71	i	/	0.9	2.1	-2
CCOC(=O)c1cc2c(cn1)[nH]c1ccccc12	-31	0.69	i	-6.5	-4.3	-27	-3
N#CC(C#N)=NNc1ccc(S(N)(=O)=O)cc1	1	0.71	i	-77	-4.3	15	8
CC(CC(C)(C)N1CC1)=NNC(=O)Nc1cccc2ccccc12	/	/	i	/	-2.6	/	-7
COc1ccc(NC(=O)c2cn(CCC#N)nc2-c2ccc(OC)c(OC)c2)cc1	/	0.67	i	3.3	-2.4	4.3	7
O=Cc1cn(Cc2ccccc2[N+](=O)[O-])c2ccccc12	-30	0.68	i	-7.5	0.3	-0.7	-1
CC(C)c1cccc(C(C)C)c1O	-4	0.71	i	-6.2	2.8	-0.8	-2
CN=C1CN(O)C(c2ccccc2)c2cc(Cl)ccc2N1 (stereo not given)	/	0.71	i	/	3.2	1.6	-4
CCCCCCn1c(O)c(C(C)=NC)c(=O)[nH]c1=O	-1	0.59	/	-0.3	1.9	-0.9	-8
ClC1=CCC2CN(CCN3CCCCC3)CC2C1 (stereo not given)	-1	0.73	/	1.3	-2.2	3.4	8
O=C1NC(=O)N(CCNc2ncc(C(F)(F)F)cc2Cl)C(=O)C1Cc1ccc(Cl)cc1 (stereo not given)	-15	0.69	/	4.9	3.3	2.7	0
CCN(CC)c1ccc(/C=C2\C(=O)NC(=S)N(c3ccc(OC)cc3OC)C2=O)o1	7	0.65	/	-3.4	160	27*	-14
CCOC(=O)c1cc(CC)sc1/N=C/c1c(O)[nH]c(=S)[nH]c1=O	98*	0.69	/	-0.6	17	7.8	2
COC(=O)N(c1ccc(OC)cc1)P1(=S)OCCC(C)O1 (stereo not given)	-3	0.77	/	1.5	0.3	-7.0	5
Cc1c(C=O)c2ccccc2n1Cc1ccccc1F	-5	0.68	i	-0.9	-1.5	3.8	4
NC12CN3CN(CN(C3)C1)C2 (tested in a mixture with another compound)	-3	0.66	i	-4.0	/	4.2	2
CN(C)C(=O)Oc1ccc2c(c1)O/C(=C\c1ccc(Cl)cc1)C2=O	-1	0.68	i	-2.9	-0.4	0.3	-8
Cc1sc2ncnc(N3CCC(C(=O)Nc4ccc(C#N)c(Cl)c4)CC3)c2c1C	/	/	i	/	-3.3	/	0
CC(C)c1ccc(N2C(=O)NC(=O)/C(=C\c3cnc(-c4ccccc4)nc3)C2=O)cc1	4	0.75	/	-1.2	-0.9	4.8	0
O=C1NC(=S)NC(=O)C1=Cc1cccn1-c1ccc(O)cc1	/	0.71	i	/	-43	4.8	71*
CNC(=S)NC1CC2CCCC(C1)N2CC(C)C (stereo not given)	-3	0.64	/	-5.2	0.7	2.0	-3
CC(Cc1ccccc1)NC(=O)CCCCC(=O)NC(C)Cc1ccccc1 (stereo not given)	-4	/	i	-1.7	3.7	/	-1
COc1ccc(C(O)CNC(C)C)c(F)c1OC (stereo not given)	-1	0.68	i	-3.3	3.6	1.0	-13
COc1ccc2[nH]c(C)c(CCNCc3cc(OC)c4c(c3)OCO4)c2c1	32	0.67	i	6.9	-2.4	4.4	10
CC(C)Oc1ccc(Cc2c(O)[nH]c(=O)[nH]c2=O)cc1	3	0.68	i	0.2	/	9.5	/
O=C(c1ccc(-c2ccccc2)c(F)c1)C1CCCN(CCO)C1 (stereo not given)	-6	0.65	i	-0.9	2.5	2.7	-3
CCc1cc2c(s1)N(CC(=O)OC)C(=O)CN=C2c1ccccc1OC	-6	0.7	/	-2.6	-1.0	1.2	-4
CCC1(c2ccccc2)C(=O)N(COC)C(=O)N(COC)C1=O	/	/	i	-19	1.7	1.8	-2
C[C@]12CCC3C(CC[C@H]4C[C@H](O)CC[C@]34C)C1C[C@@H](O)[C@H]2O (stereo not given in full)	/	0.67	/	/	2.9	-0.7	/
CC(CC(C#N)(c1ccccc1)c1ccccc1)N1CCOCC1 (stereo not given)	/	/	i	/	-0.2	/	-4
O=C1Nc2ccccc2C(c2ccccc2)=NC1O (stereo not given)	1	0.7	i	11	1.4	3.0	3
Cc1ccc(/C=C2/Sc3ccc(C(=O)N4CCC5(CC4)OCCO5)cc3NC2=O)cc1	-3	/	i	6.7	1.8	/	7
O=[N+]([O-])c1cnc2ccc3ccccc3c2c1	-42	0.45*	i	-1.0	4.3	2.5	0
O=c1c2ccccc2nc(Cc2ccccc2)n1-c1ccccc1	0	0.69	i	-4.0	1.8	0.0	-15
C/C1=C\[C@@H](C)C/C=C/[C@H]2[C@@H]3O[C@]3(C)[C@@H](C)[C@H]3[C@H](Cc4c[nH]c5ccccc45)NC(=O)[C@]32C(=O)/C=C/C(=O)[C@@H]1O	1	/	/	7.5	13	/	72*
CC[C@@H](CO)C1CC2NC3CC4(c5ccccc5N(C)[C@@H]24)C(O)C31 (stereo not given in full)	12	0.78	i	4.5	-1.7	3.7	2
CCCCCCN=C(CC)c1c(O)n(CCCC)c(=O)[nH]c1=O	-16	0.69	/	1.9	-0.9	1.8	-5
O=c1[nH]c(CN2CC=C(c3ccccc3)CC2)nc2scc(-c3ccccc3)c12	2	0.69	i	-3.5	21	1.9	-145
Cc1cc(C=O)c(C)n1C1CCCCC1	-21	0.74	/	-4.6	5.6	3.8	-2
COc1ccc(C(=O)C2CCCN(Cc3ccon3)C2)cc1OC (stereo not given)	10	0.64	i	4.2	1.5	1.5	8
CN1CCN(c2ccc([N+](=O)[O-])c3no[n+]([O-])c23)CC1	-22	0.057*	i	38*	-76	42*	21
c1ccc2c(c1)Nc1ccccc1S2	/	0.64	/	11&-1.6	8.0	5.9	3
CC(=O)O[C@H]1CC[C@@]2(C)[C@H](C1)C(=O)C[C@H]1[C@@H]3CC[C@@H]4[C@@H](CN5C[C@@H](C)CC[C@H]5[C@@]4(C)O)[C@@H]3C[C@@H]12	-20	0.63	i	-5.2	-0.1	0.6	-3
CC1CCCN(C(=O)c2ccc(N3CC4CC(C3)c3cccc(=O)n3C4)c([N+](=O)[O-])c2)C1 (stereo not given)	-8	0.63	/	11	3.5	3.7	1
CCC(=O)Nc1ccc(Cl)c(Cl)c1	/	/	i	/	-1.1	/	-4
CSc1ncc(CN2CCCC(C(=O)c3sccc3C)C2)cn1 (stereo not given)	/	0.7	i	-4.6	16	1.0	-5
OC(CNC1CCCCC1)c1ccccc1 (stereo not given)	-3	0.75	/	-0.1	-0.5	-0.6	-2
CCN1C[C@]2(CO)CC[C@H](OC)[C@@]34C5C[C@H]6[C@H](OC)C5[C@](O)(C[C@H]6OC)[C@@H](C(OC)C23)[C@@H]14 (stereo not given in full)	-14	0.69	i	-6.1	-4.2	0.3	1
O=C(c1ccccc1)c1cn(CC(=O)N2CCCc3ccccc32)c2ccccc12	-20	0.76	/	-10	3.4	-2.0	3
O=C1N(c2cccc(Cl)c2)C(c2cccnc2)N2CCCN12 (stereo not given)	1	0.64	i	6.0	-4.5	1.9	0
CCN(CC)CCNCC(=O)Nc1ccc(Cl)cc1C(=O)c1ccccc1	4	0.69	/	0.3	-0.1	1.5	-6
N#CC1=C(N)Oc2c(c(=O)oc3ccccc23)C1c1ccccc1OC(=O)c1cccs1 (stereo not given)	2	/	/	-3.0	1.4	/	0
COCCCN=Cc1c(O)[nH]c(=S)[nH]c1=O	0	0.78	i	-1.0	-0.3	8.3	-1
CCn1c(O)c(/C=N/NC(=O)c2ccncc2)c(=O)[nH]c1=S	13	/	i	4.3	-1.2	/	-12
Cc1ccc2c(c1)c(=O)c1c3n2CCN(CC2CO2)C3CC1 (stereo not given)	-26	0.67	/	1.9	-0.6	-36	4
CCOP(=O)(OCC)c1cc(C)c(O)c(C(C)(C)C)c1	3	0.71	i	-4.9	4.8	1.7	4
CN1C(=O)N(C)C(=O)C(NS(=O)(=O)c2ccc(N)cc2)(c2ccccc2)C1=O	/	/	i	/	-3.2	/	7
Cc1c(Br)c(=O)oc2cc(OCC(=O)N3C[C@H]4C[C@@H](C3)c3cccc(=O)n3C4)ccc12	-1	0.74	i	-1.1	-3.0	-71	-4

Pulled by structure from the list above:
SMILES	ALR H2O2 inh	Ecoli growth	FGF22 binding	LANA-H2A inh	HNF4A DNA FP	UCH37 inh	B2AR ag
CCCCCCN=C(CC)c1c(O)n(CCCC)c(=O)[nH]c1=O	-16	0.69	/	1.9	-0.9	1.8	-5
OC(CNC1CCCCC1)c1ccccc1 (stereo not given)	-3	0.75	/	-0.1	-0.5	-0.6	-2
CNC(=S)NC1CC2CCCC(C1)N2CC(C)C (stereo not given)	-3	0.64	/	-5.2	0.7	2.0	-3
N#CC(C#N)=NNc1ccc(S(N)(=O)=O)cc1	1	0.71	i	-77	-4.3	15	8
CCOC(=O)c1cc(CC)sc1/N=C/c1c(O)[nH]c(=S)[nH]c1=O	98*	0.69	/	-0.6	17	7.8	2
CC(C)Oc1ccc(Cc2c(O)[nH]c(=O)[nH]c2=O)cc1	3	0.68	i	0.2	/	9.5	/

(continued)
SMILES	ALR H2O2 inh	Ecoli growth	FGF22 binding	LANA-H2A inh	HNF4A DNA FP	UCH37 inh	B2AR ag
COc1ccc(NP(=O)(Nc2ccc(OC)cc2)Oc2ccccc2)cc1	0	0.68	/	-1.5	0.5	1.2	3
CC(=O)O[C@H]1C(=O)[C@@]2(C)C([C@H](OC(=O)c3ccccc3)[C@]3(O)C[C@H](OC(=O)[C@H](O)[C@@H](NC(=O)Cc4ccccc4)c4ccccc4)C(C)=C1C3(C)C)[C@]1(OC(C)=O)CO[C@@H]1C[C@@H]2O (stereo not given in full)	-3	0.69	i	5.2	3.7	1.2	-14
CCOC(=O)CC1=C(C(=O)OCC)C2(C(=O)Nc3ccccc32)C(C#N)=C(N)O1 (stereo not given)	2	0.68	/	1.0	0.7	5.1	-3
COC(=O)C1=C(c2cccc(OCc3ccccc3)c2)C[C@@H]2CC[C@H]1N2C(=O)NCCOc1ccccc1	2	/	i	-2.8	-0.8	2.9	-5
C#CCOC(=O)C1=CCCN(C)C1	13	0.7	i	-1.8	-1.4	2.7	15
CN(C)c1ccc(C2C3C=CC(C3)C2(C#N)C(=O)O)c(Br)c1 (stereo not given)	6	0.65	i	-6.0	1.0	0.4	3
COc1ccc(N2CCN(C(CNC(=O)Oc3ccccc3)c3cccnc3)CC2)cc1 (stereo not given)	85*	0.67	/	7.7	1.7	0.8	4
Nc1ccc(Br)cc1C(=O)c1ccccc1	19	0.66	i	-0.7	-0.6	-3.6	2
O=C(O)C1(c2ccc(Cl)cc2)CCC1	-17	0.74	/	0.3	-1.6	-1.4	-1
COC(=O)CC(=O)c1ccc2c(c1)OCO2	-7	0.65	i	5.1	-0.8	0.7	-6
COC(=O)C1=C(c2cccc(C#N)c2)C[C@@H]2CC[C@H]1N2C(=O)NCc1cccc2ccccc12	-2	/	i	-5.2	1.6	47*	-7
CC(=O)N1CC(=O)Nc2ccc(Br)cc2C1c1ccc(F)cc1 (stereo not given)	-3	0.64	i	4.5	1.3	0.8	9
